DUX4 inh – inhibitors of DUX4-driven ZSCAN4 reporter expression, primary screen, 293T cells, Gaussia and Italica luciferase | 293T-iDUX4 ZSCAN4-Gaussia luciferase reporter, 24 h; hits give low values | activity change, negative = inhibition, % (no concentration beside the values) | 0.8% of 37,000 active;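 active means -10% or lower and over 25 points stronger than a control reporter; inconclusive means -10% or lower with a smaller gap; inactive means above -10%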;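 further: 0% = median of neutral control wells and -100% = median of positive control wells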
DUX4 inh difference – further read-out of DUX4 inh, marked with its call; Gaussia minus Italica difference, %; measured here: selective DUX4 reporter inhibition;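 worked out from the two reporters; negative = selective loss of the DUX4 reporter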
DUX4 inh control – second read-out of DUX4 inh, no call of its own (marks repeat the call); activity change, negative = inhibition, %; measured here: Italica tet-on control reporter;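 0 = neutral control and -100 = positive control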
Starred values were filed as active, the others as inactive; & = joins results of further samples. These rows are one share of the data; rates above refer to the full screens.

C[C@@H]1CN([C@@H](C)CO)C(=O)c2ccccc2-c2ccccc2CO[C@@H]1CN(C)C(=O)NC1CCCCC1 was read as DUX4 inh 3, DUX4 inh difference -5 and DUX4 inh control 7.7.
For O=C(C[C@H]1CC[C@@H]2[C@H](COC[C@@H](O)CN2C(=O)Cc2ccccc2)O1)NC1CCCC1 the results were DUX4 inh 1, DUX4 inh difference -1 and DUX4 inh control 1.6.
O=C(Nc1nccs1)[C@H]1[C@H](CO)[C@H]2Cn3c(cccc3=O)[C@@H]1N2C(=O)C1CC1 was read as DUX4 inh 2, DUX4 inh difference 2 and DUX4 inh control 0.1.
Screening COc1ccc(-c2ccc([C@@H]3[C@H]4CN(C(=O)NC(C)C)CC(=O)N4[C@H]3CO)cc2)cc1 returned DUX4 inh 14, DUX4 inh difference 17 and DUX4 inh control -3.7.
`COc1ccc(NC(=O)Nc2ccc3c(c2)C(=O)N([C@H](C)CO)C[C@@H](C)[C@H](CN(C)C(=O)NC2CCCCC2)OCCCC[C@@H](C)O3)cc1` gave DUX4 inh 0, DUX4 inh difference -2 and DUX4 inh control 2.5.
Screening CN(C)CC(=O)N1[C@H](CO)[C@@H](c2ccc(-c3cccc(C(=O)N(C)C)c3)cc2)[C@@H]1C#N returned DUX4 inh -1, DUX4 inh difference 2 and DUX4 inh control -3.1.
Cc1noc(C)c1NC(=O)N[C@@H]1C=C[C@H](CC(=O)Nc2ccc(-c3ccccc3)cc2)O[C@H]1CO was read as DUX4 inh 9, DUX4 inh difference 6 and DUX4 inh control 2.3.
`O=C(C[C@H]1C=C[C@@H](NC(=O)Cc2cccnc2)[C@@H](CO)O1)Nc1ccc(-c2ccccc2)cc1` gave DUX4 inh 4, DUX4 inh difference 5 and DUX4 inh control -0.9.
`Cc1ccc(S(=O)(=O)N(C)C[C@@H]2Oc3ccc(NC(=O)Nc4ccc(C(F)(F)F)cc4)cc3CC(=O)N([C@H](C)CO)C[C@H]2C)cc1` gave DUX4 inh 0, DUX4 inh difference 0 and DUX4 inh control -0.1.
For CN(C)CC#Cc1ccc([C@@H]2[C@@H](CO)N3C(=O)CN(C(=O)c4ccccc4)C[C@H]23)cc1 the results were DUX4 inh 9, DUX4 inh difference -2 and DUX4 inh control 10.
`CCCC#Cc1ccc([C@@H]2[C@H](C#N)N(C(=O)C3CCCC3)[C@H]2CO)cc1` gave DUX4 inh -2, DUX4 inh difference -3 and DUX4 inh control 0.9.
For N#Cc1cccc(-c2ccc(C3[C@@H]4CN(S(=O)(=O)Cc5ccccc5)C[C@H]3N4)cc2)c1 (stereo partly specified) the results were DUX4 inh -41*, DUX4 inh difference -34* and DUX4 inh control -7.2*.

Of the compounds above, 3 contain nitrogen in an aromatic ring.
O=C(Nc1nccs1)[C@H]1[C@H](CO)[C@H]2Cn3c(cccc3=O)[C@@H]1N2C(=O)C1CC1 was read as DUX4 inh 2, DUX4 inh difference 2 and DUX4 inh control 0.1.
Cc1noc(C)c1NC(=O)N[C@@H]1C=C[C@H](CC(=O)Nc2ccc(-c3ccccc3)cc2)O[C@H]1CO was read as DUX4 inh 9, DUX4 inh difference 6 and DUX4 inh control 2.3.
`O=C(C[C@H]1C=C[C@@H](NC(=O)Cc2cccnc2)[C@@H](CO)O1)Nc1ccc(-c2ccccc2)cc1` gave DUX4 inh 4, DUX4 inh difference 5 and DUX4 inh control -0.9.

New compounds follow.
`O=C(Nc1cccc(Cl)c1)N1[C@@H]2CNC[C@H]1C2c1ccc(-c2ccccc2)cc1` (stereo partly specified) gave DUX4 inh 10&13, DUX4 inh difference -9&-2 and DUX4 inh control 19&15.
COc1cccc(S(=O)(=O)N2CC[C@@H]3[C@H]2c2cc(C#Cc4cccnc4)ccc2N(C)[C@H]3CO)c1 was read as DUX4 inh -7, DUX4 inh difference -4 and DUX4 inh control -2.8.
Screening C[C@H]1CN([C@@H](C)CO)C(=O)c2cc(C#CC3CC3)cnc2O[C@H]1CN(C)Cc1ccccc1C(=O)O returned DUX4 inh 3, DUX4 inh difference -4 and DUX4 inh control 7.0.
For O=C(C[C@@H]1CC[C@@H]2[C@H](COC[C@H](O)CN2Cc2ccccc2)O1)N1CCOCC1 the results were DUX4 inh 5, DUX4 inh difference 3 and DUX4 inh control 1.5.
CCC(=O)N(CC)C[C@H]1[C@H](c2ccc(-c3ccccc3)cc2)[C@@H](CO)N1C(C)=O was read as DUX4 inh 4, DUX4 inh difference -3 and DUX4 inh control 6.7.
Screening C[C@@H]1CCCCO[C@@H](CN(C)Cc2ccc(C(=O)Nc3ccccc3N)cc2)[C@@H](C)CN([C@H](C)CO)C(=O)c2cc(NC(=O)CCC(F)(F)F)ccc2O1 returned DUX4 inh 2, DUX4 inh difference 0 and DUX4 inh control 1.8.
`C[C@@H]1CCCCO[C@@H](CN(C)Cc2ccc(C(=O)O)cc2)[C@@H](C)CN([C@H](C)CO)C(=O)c2cc(NS(=O)(=O)c3ccc(F)cc3)ccc2O1` gave DUX4 inh -4, DUX4 inh difference 10 and DUX4 inh control -13.
For CN1[C@@H](CO)[C@@H]2c3ccccc3N(C(=O)Nc3cc(F)ccc3F)C[C@@H]21 the results were DUX4 inh -1, DUX4 inh difference -1 and DUX4 inh control 0.3.
Screening COc1ccc(CN2C[C@H](O)COC[C@@H]3O[C@@H](CC(=O)N4CCc5ccccc5C4)CC[C@H]32)cc1 returned DUX4 inh 4, DUX4 inh difference 16 and DUX4 inh control -11.
For CO[C@H]1CC[C@@H]2CCN(C)C(=O)[C@H](C)N(C)C(=O)c3cc(C#N)ccc3OC[C@@H]1O2 the results were DUX4 inh -4, DUX4 inh difference -4 and DUX4 inh control -0.3.
Screening CCNC(=O)c1cc2c(c(-c3cccc(Br)c3)n1)[C@H](CCO)NC2 returned DUX4 inh 5, DUX4 inh difference 24 and DUX4 inh control -19.
`Cc1ccccc1-c1ccccc1[C@H]1[C@@H](C#N)N(C(=O)c2ccccc2)[C@H]1CO` gave DUX4 inh inconclusive.

In the list so far, 5 have a cyano group:
Screening CN(C)CC(=O)N1[C@H](CO)[C@@H](c2ccc(-c3cccc(C(=O)N(C)C)c3)cc2)[C@@H]1C#N returned DUX4 inh -1, DUX4 inh difference 2 and DUX4 inh control -3.1.
`CCCC#Cc1ccc([C@@H]2[C@H](C#N)N(C(=O)C3CCCC3)[C@H]2CO)cc1` gave DUX4 inh -2, DUX4 inh difference -3 and DUX4 inh control 0.9.
For N#Cc1cccc(-c2ccc(C3[C@@H]4CN(S(=O)(=O)Cc5ccccc5)C[C@H]3N4)cc2)c1 (stereo partly specified) the results were DUX4 inh -41*, DUX4 inh difference -34* and DUX4 inh control -7.2*.
For CO[C@H]1CC[C@@H]2CCN(C)C(=O)[C@H](C)N(C)C(=O)c3cc(C#N)ccc3OC[C@@H]1O2 the results were DUX4 inh -4, DUX4 inh difference -4 and DUX4 inh control -0.3.
`Cc1ccccc1-c1ccccc1[C@H]1[C@@H](C#N)N(C(=O)c2ccccc2)[C@H]1CO` gave DUX4 inh inconclusive.

Following part:
For O=C(NCC1CCCCC1)[C@@H]1[C@@H](CO)[C@@H]2Cn3c(ccc(C4=CCCCC4)c3=O)[C@H]1N2 the results were DUX4 inh -6, DUX4 inh difference -2 and DUX4 inh control -3.8.
For N#C[C@@H]1[C@@H](c2ccccc2-c2ccccc2)[C@H](CO)N1C(=O)Cc1cccnc1 the results were DUX4 inh 11, DUX4 inh difference 19 and DUX4 inh control -7.9.
For CCCC#Cc1cnc2c(c1)C(=O)N([C@@H](C)CO)C[C@@H](C)[C@H](CN(C)Cc1ccc3c(c1)OCO3)O2 the results were DUX4 inh 4, DUX4 inh difference -1 and DUX4 inh control 5.4.
C[C@@H]1CN([C@H](C)CO)C(=O)c2cc(NC(=O)NC3CCCCC3)ccc2O[C@@H]1CN(C)C(=O)Nc1ccc2c(c1)OCO2 was read as DUX4 inh 6, DUX4 inh difference 4 and DUX4 inh control 1.8.
`O=C(C[C@H]1C[C@@H]2c3cc(NS(=O)(=O)c4ccc(F)cc4)ccc3O[C@@H]2[C@@H](CO)O1)NCCc1ccccc1` gave DUX4 inh inconclusive.
CC(=O)N1CCCCN2[C@H](CO)[C@@H](c3ccc(Br)cc3)[C@H]2C1 was read as DUX4 inh 21, DUX4 inh difference -8 and DUX4 inh control 29.
`CN1c2ccc(-c3cccc(F)c3)cc2[C@@H]2[C@@H](CCN2C(=O)c2ccccc2F)[C@@H]1CO` gave DUX4 inh 3, DUX4 inh difference 4 and DUX4 inh control -0.9.
`COc1ccc2c3c([nH]c2c1)[C@H](CO)N(C(=O)c1ccccn1)CC31CCN(C(=O)C2CC2)CC1` gave DUX4 inh 17, DUX4 inh difference 17 and DUX4 inh control -0.2.
`C[C@@H]1CN([C@@H](C)CO)C(=O)c2cc(NS(=O)(=O)c3ccc(F)cc3)ccc2O[C@@H]1CN(C)C(=O)Nc1ccccc1` gave DUX4 inh 2, DUX4 inh difference 1 and DUX4 inh control 0.8.
For CN1CCN(C(=O)C[C@@H]2C[C@@H]3c4cc(NC(=O)C5CCC5)ccc4O[C@@H]3[C@H](CO)O2)CC1 the results were DUX4 inh 10, DUX4 inh difference 2 and DUX4 inh control 7.8.
For O=C(CCN1CCCCC1)NCC[C@H]1CC[C@@H](NC(=O)Cc2cccnc2)[C@H](CO)O1 the results were DUX4 inh -2, DUX4 inh difference 2 and DUX4 inh control -3.6.
`COCC(=O)N1CC[C@@H]2[C@H]1c1cc(-c3ccccc3)ccc1N(C)[C@H]2CO` gave DUX4 inh 13, DUX4 inh difference 7 and DUX4 inh control 5.3.
`O=C(N[C@H]1CC[C@H](CC(=O)N2CCN(c3ccccc3)CC2)O[C@@H]1CO)c1ccncc1` gave DUX4 inh 1, DUX4 inh difference 3 and DUX4 inh control -2.5.
Screening CC=Cc1ccc2n(c1=O)C[C@@H]1[C@@H](CO)[C@H](C(=O)NCC(F)(F)F)N(CC3CC3)[C@H]21 (mixture of isomers) returned DUX4 inh -3, DUX4 inh difference -4 and DUX4 inh control 1.2.
Screening CCCNC(=O)N1[C@H](CNC(C)=O)[C@H](c2ccc(C3=CCCC3)cc2)[C@@H]1CO returned DUX4 inh -2, DUX4 inh difference -5 and DUX4 inh control 3.2.
Screening CN1C(=O)c2cc(NC(=O)c3cccc(C(F)(F)F)c3)ccc2OC[C@@H]2O[C@H](CC(=O)NCCN3CCCC3)CC[C@@H]21 returned DUX4 inh 1, DUX4 inh difference -1 and DUX4 inh control 2.1.
C/C=C/c1ccc([C@H]2[C@H]3CN(S(=O)(=O)c4ccc(OC)cc4)CCCCN3[C@H]2CO)cc1 was read as DUX4 inh inconclusive.
For COc1ccccc1CNC(=O)C[C@H]1CC[C@H]2[C@@H](COc3ccc(NC(=O)c4ccno4)cc3C(=O)N2C)O1 the results were DUX4 inh 3, DUX4 inh difference 0 and DUX4 inh control 3.2.
Screening COc1ccc2c3c([nH]c2c1)[C@@H](CO)N(C(=O)c1ccncc1)CC31CN(C(=O)CC2CC2)C1 returned DUX4 inh 18, DUX4 inh difference 6 and DUX4 inh control 12.
Screening O=C(C[C@H]1C[C@H]2c3cc(NC(=O)Nc4ccccc4F)ccc3O[C@H]2[C@H](CO)O1)NC1CCCCC1 returned DUX4 inh -7, DUX4 inh difference -6 and DUX4 inh control -1.4.
Cc1noc(C)c1S(=O)(=O)N(C)C[C@H]1OCCCC[C@H](C)Oc2ccc(NC(=O)c3ccccc3)cc2C(=O)N([C@H](C)CO)C[C@@H]1C was read as DUX4 inh -7, DUX4 inh difference 5 and DUX4 inh control -12.
`CO[C@H]1CN(C)C(=O)c2cc(NC(C)=O)ccc2OC[C@@H](C)N(Cc2ccncc2)C[C@@H]1C` gave DUX4 inh -6, DUX4 inh difference -5 and DUX4 inh control -1.3.
`CCC(=O)N1CC(=O)N2[C@H](CO)[C@H](c3ccc(C#CC(C)C)cc3)[C@H]2C1` gave DUX4 inh 9, DUX4 inh difference 6 and DUX4 inh control 3.2.
For CCCNC(=O)N1[C@H](CO)[C@@H](c2ccccc2-c2ccccc2)[C@@H]1C#N the results were DUX4 inh 3, DUX4 inh difference -7 and DUX4 inh control 10.
CC=Cc1ccc2n(c1=O)C[C@H]1[C@H](CO)[C@@H](C(=O)NCc3ccccc3)N(CC)[C@@H]21 (mixture of isomers) was read as DUX4 inh 1, DUX4 inh difference -1 and DUX4 inh control 2.2.
CO[C@H]1CN(C)C(=O)c2ccc(NC(=O)c3ccno3)cc2OC[C@@H](C)N(S(C)(=O)=O)C[C@@H]1C was read as DUX4 inh 3, DUX4 inh difference -4 and DUX4 inh control 7.1.
Screening C[C@H]1CN([C@@H](C)CO)C(=O)Cc2cc(NC(=O)Nc3cccc4ccccc34)ccc2O[C@@H]1CN(C)S(=O)(=O)c1ccc(Cl)cc1 returned DUX4 inh 0, DUX4 inh difference 1 and DUX4 inh control -1.8.
CCC(=O)N1CCCCN2[C@@H](CO)[C@@H](c3ccc(-c4cccnc4)cc3)[C@@H]2C1 was read as DUX4 inh 7, DUX4 inh difference -10 and DUX4 inh control 16.
For C[C@H](CO)N1C[C@H](C)[C@@H](CN(C)S(=O)(=O)c2cccs2)OCc2ccccc2-c2c(n(C)c3ccccc23)C1=O the results were DUX4 inh inconclusive.
For C[C@H]1CCCCO[C@@H](CN(C)S(=O)(=O)c2ccc(Cl)cc2)[C@@H](C)CN([C@@H](C)CO)C(=O)c2cc(NS(=O)(=O)c3cn(C)cn3)ccc2O1 the results were DUX4 inh 5, DUX4 inh difference 1 and DUX4 inh control 3.8.
Screening C[C@H](CO)N1C[C@H](C)[C@@H](CN(C)Cc2cncnc2)Oc2cc(Br)ccc2S1(=O)=O returned DUX4 inh 1, DUX4 inh difference 0 and DUX4 inh control 1.1.
